Bioassay records from PubChem BioAssay.
Menin MLL FP FL – displaces fluorescein MLL peptide from human menin. 290,000 tested, under 10 active. AID 1766. FP activity change, % at 61.4 µM. Fluorescence polarization, fluorescein-MLL peptide displacement from menin; inconclusive = falling polarisation curve, or a change in total fluorescence; inactive = total fluorescence flat and polarisation flat or rising; no compound was filed as active; the % refers to the polarisation; negative = inhibition;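 note: % of control where 0% means no effect; inhibitors lower the polarisation; unlabelled MLL peptide was the positive control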
gsp antagonist – antagonizes gsp, the McCune-Albright syndrome mutation; Potency, µM (series often up to 76.9 µM), inactives show top-dose activity change, negative = inhibition, usual class: inhibitors; AID 624288; actives 0.4% (n = 340,000); gsp-mutant cells, cAMP HTRF, 30 min; control for the full effect not named in the record; active = falling curve of any shape with a large fitted effect; inconclusive = falling curve, mostly with a smaller effect; inactive = flat or rising curve; cell line not stated here;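 note: intracellular cAMP measured with PDE inhibitor Ro 20-1724 present during compound exposure; potency is the fitted concentration of half-maximal effect; % is set by controls: 0 for no effect and ±100 for the full control effect; nearly all actives have a fitted effect of over 65% in size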
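Measurement of cellular cAMP by homogeneous time-resolved fluorescence following a 30 min compound exposure at 37C. The PDE inhibitor […] was present throughout; the assay buffer was DPBS with 0.05% BSA and 0.005% Tween 20.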
TRPML1 ag – activates the human TRPML1 channel. activation, % (concentration not given with the values). actives 0.12% (n = 410,000). TRPML1-expressing cells, Ca2+ dye fluorescence, FDSS; host cell line not named in the record; reference of the full effect not given here; in the data active = activation above about 50%; inconclusive = about 30% to 50%; inactive = below about 30%; note: 0% is about no effect; the text of the record puts the active cut at 80%
Target sequence (Q9GZU1 whole entry, looked up): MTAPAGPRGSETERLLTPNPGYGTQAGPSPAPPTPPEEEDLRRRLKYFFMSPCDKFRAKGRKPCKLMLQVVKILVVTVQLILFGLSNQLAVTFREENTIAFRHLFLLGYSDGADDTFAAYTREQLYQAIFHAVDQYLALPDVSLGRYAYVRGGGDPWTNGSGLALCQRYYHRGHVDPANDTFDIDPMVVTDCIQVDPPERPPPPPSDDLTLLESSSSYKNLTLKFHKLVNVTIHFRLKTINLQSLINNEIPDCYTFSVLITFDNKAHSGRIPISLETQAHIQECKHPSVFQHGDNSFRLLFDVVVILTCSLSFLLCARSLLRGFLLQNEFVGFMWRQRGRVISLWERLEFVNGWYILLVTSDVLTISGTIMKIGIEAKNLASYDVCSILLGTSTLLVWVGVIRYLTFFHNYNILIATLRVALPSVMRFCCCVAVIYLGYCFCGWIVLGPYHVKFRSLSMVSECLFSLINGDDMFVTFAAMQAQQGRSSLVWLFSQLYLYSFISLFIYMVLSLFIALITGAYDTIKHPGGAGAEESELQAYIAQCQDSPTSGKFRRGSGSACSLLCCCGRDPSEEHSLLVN
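In this qHTS format, compounds were pin-transferred onto Ca8-dye-loaded TRPML1-DL cells induced with Tet overnight, and intracellular Ca2+ fluorescence was recorded kinetically for 110 s after a 10 s baseline. A subsequent 4uM final 54-4 (EC80) addition followed by a second 110 s read served as the antagonist phase.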
gsp agonist – agonists of gsp mutant (McCune-Albright syndrome); gsp mutant cells, cAMP HTRF, 30 min; control for the full effect not named in the record; AID 624287; Potency, µM (series often up to 76.9 µM), inactives show top-dose activation (cAMP increase), usual class: activators; actives 0.13% (n = 340,000); active = well fitted activation curve with a large enough effect; inconclusive = small, poorly fitted or top-dose-only effect, or another doubt; inactive = no such curve, though single readings can be large or run the other way; cell line not stated here;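 note: phosphodiesterase inhibitor Ro 20-1724 added with compounds to block cAMP breakdown; potency is the fitted concentration of half-maximal effect; nearly all actives have a fitted effect of over 60% in size; about a fifth of the inactives were tested at one dose only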
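Cells stably selected in G418 were plated at 2000/well, grown 16-24 hr, then given compounds in DMSO with the PDE inhibitor […] (300 uM solution added) for 30 min at 37C; cAMP was read by HTRF.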
TRPML1 blocker – inhibitors of human TRPML1 channel. TRPML1-inducible cells, Ca2+ dye fluorescence, FDSS; hits give low values; inhibition of EC80 agonist-evoked calcium signal. activity change, negative = inhibition, % (concentration not given with the values). actives 0.02% (n = 390,000); in the data active means activity change below about -50%; inconclusive means about -30% to -50%; inactive means above about -30%;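 note: stimulus is agonist 54-4 at its EC80 concentration; % is set by controls: 0 for no effect and ±100 for the full control effect; compound concentration not given in the record; the text of the record puts the active cut at -80%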
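Calcium fluorescence in TRPML1-DL cells induced overnight with Tet: a 110 s read after compound pin addition, then a 110 s antagonist read after challenge with 54-4 at 4 uM final (EC80).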
ClpP mod – qHTS Assay for Activators of ClpP; purified B. subtilis ClpP, FRET peptide cleavage, 20 min; Potency, µM (doses to about 57.5 µM), for the others: at the top dose activity change, negative = active; actives 1.9% (n = 340,000); active = well fitted falling curve with a large enough effect; inconclusive = small, poorly fitted or top-dose-only effect; inactive = no such curve, though single readings can be large or run the other way; note: potency is the fitted concentration of half-maximal effect; the source files actives as falling curves though it sought activators and does not explain the sign; nearly all actives have a fitted effect of over 65% in size; many hits overshoot -100%
Target sequence (P80244 whole entry, looked up): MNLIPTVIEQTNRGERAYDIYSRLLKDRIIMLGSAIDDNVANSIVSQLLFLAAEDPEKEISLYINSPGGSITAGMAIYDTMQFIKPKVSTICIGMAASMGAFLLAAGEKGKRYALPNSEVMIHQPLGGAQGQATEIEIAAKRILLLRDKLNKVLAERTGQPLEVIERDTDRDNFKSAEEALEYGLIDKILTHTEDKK
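FRET quenching reversal measured ClpP activation: 10 microg/mL B. subtilis ClpP at pH 8 with the FRET-FV decapeptide, read at 430 nm after 320 nm excitation. The 20-min minus 0-min signal was scaled between DMSO/no-enzyme wells and ADEP (5.8 microM final).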
Numbers without * were called inactive; ? = inconclusive; . = no result given; [ ] = remark or other dose.

SMILES	Menin MLL FP FL	gsp antagonist	TRPML1 ag	gsp agonist	TRPML1 blocker	ClpP mod
COc1ccc(N2CCN(C(=O)C3CCC(Cn4c(=S)[nH]c5ccccc5c4=O)CC3)CC2)cc1 (centres undefined)	1.8	-21.8%	3.0	0.0%	9.1	-1.0%
Cc1cccnc1CCNC(=O)CCc1nnc(CCc2ccccc2)o1	-1.5	3.7%	0.0	14.9%[15.4 µM]	7.4	.
COc1ccccc1NC(=O)CSc1nnc(-c2ccccn2)o1	-0.2	-14.2%	-0.6	-3.3%[15.4 µM]	28.9	.
C=CCn1c(SCC(=O)c2c(N)n(C)c(=O)n(C)c2=O)nnc1-c1ccccc1F	0.0	0.7%	0.6	11.1%	51.3	-1.2%
Cn1c(=O)c2c(nc(CN3CCN(C(=O)c4ccco4)CC3)n2CCc2ccccc2)n(C)c1=O	2.4	-0.4%	-0.3	?	-7.6	1.0%
Cc1ccc(S(=O)(=O)N2CCCCC2)cc1NC(=O)c1cc(F)c(F)c(F)c1F	.	-6.0%	1.1	-4.5%	27.0	.
CC1CCCC(C)N1CCCNC(=O)C1CCCN(c2ncnc3c2nc2n3CCCCC2)C1 (centres undefined)	6.3	-1.1%	0.0	?	-0.4	.
COc1ccc(C(c2nnnn2C2CCCC2)N2CCN(C(=O)c3ccco3)CC2)cc1OC (centres undefined)	.	3.0%	9.3	-10.3%[15.4 µM]	4.9	.
CN(CCCCCCCCC(=O)/C=N/O)Cc1ccccc1	3.6	-10.3%	0.5	-6.5%	8.6	0.3%
CC(=O)c1cnn(-c2ccc(Cl)c(Cl)c2Cl)c1C	2.1	0.0%	0.7	0.2%	-5.3	.
C(=N\c1nc2ccccc2n1CCN1CCOCC1)/c1cccs1	0.1	7.4%	-0.1	15.2%	7.8	-2.7%
CN(C)CCCNC(=O)N1c2ccccc2C=Cc2ccccc21	1.3	10.5%	0.5	-8.4%[15.4 µM]	13.0	4.7%
CCOc1ccc(C2NC(=O)Cc3cc(OC)c(OC)cc32)cc1 (centres undefined)	0.8	6.7%	-0.7	8.3%[15.4 µM]	-9.9	.
COC(=O)CSc1nc2c(c(-c3ccco3)c1C#N)CCCC2	?	?	0.2	7.9%	0.7	-13.0%
CCn1c(Cc2ccccc2)nnc1SCC(=O)Nc1ccc(N)cc1	1.5	-2.6%	0.3	5.7%	15.2	0.6%
O=C(NCc1cccc(Cl)c1)c1cccc(S(=O)(=O)N2CCCCC2)c1	.	?	1.2	-54.6%[inhibitor]	6.4	1.0%
CCN(CC)S(=O)(=O)c1cccc(-c2n[nH]c(=S)n2/N=C/c2ccc(C(=O)OC)cc2)c1	-1.6	-15.1%	0.0	4.1%[15.4 µM]	13.1	-4.4%
Cn1nnc(NCc2cc(Br)ccc2OCc2ccccc2F)n1	-0.5	-7.1%	1.9	-0.5%	19.5	-1.0%
COC(=O)c1cn(Cc2cc(OC)ccc2OC)cc(F)c1=O	4.3	11.2%	-1.0	-1.2%[15.4 µM]	7.6	-0.4%
CC1=CC=CN2C1=NC(=O)CC2(C)C(=O)N(CC(=O)NC1CCCC1)c1ccccc1C (centres undefined)	1.0	10.8%	1.8	5.4%	12.3	4.3%
C=CCOc1ccc(C(=O)O)cc1Cl	-0.5	-2.3%	0.5	?	24.5	-2.7%
CN1CCN(C(=O)/C=C/c2ccccc2)CC1	-0.8	10.5%	-0.2	-60.2%[inhibitor]	5.5	.
CCOC(=O)C1CN(S(=O)(=O)c2ccc(C)cc2)c2cc(S(=O)(=O)CC)ccc2O1 (centres undefined)	1.3	-1.8%	-0.6	-16.9%	15.6	1.1%
O=C1NC(c2ccccc2Cl)=N/C1=C/c1ccco1	?	-1.2%	-0.1	-16.2%[15.4 µM]	8.6	.
Cc1cc(/C=C(/C#N)C(=O)O)c(C)n1-c1cccc2ccccc12	-1.5	?	-0.3	-26.0%[15.4 µM]	-14.9	0.5%

The listing continues.
SMILES	Menin MLL FP FL	gsp antagonist	TRPML1 ag	gsp agonist	TRPML1 blocker	ClpP mod
CCOC(=O)C1(C(=O)OCC)COC(=O)C1CN1Cc2cc3ccccc3nc2C1 (centres undefined)	.	.	2.3	?	8.5	-8.3%
Cc1cc2nc(-c3ccc(OCc4ccc(F)cc4)cc3)cc(C(F)(F)F)n2n1	.	.	-0.8	.	-8.5	-6.6%
COc1ccc(CC2S/C(=N/N=C/c3ccccc3O)NC2=O)cc1 (centres undefined)	-0.6	-23.4%	.	-1.3%	.	-2.3%
COC(=O)CC1C(=O)NCCN1C(=O)c1ccccc1 (centres undefined)	0.2	6.9%	0.5	?	?	0.6%
COC(=O)c1cc(NC(=O)c2ccc([N+](=O)[O-])cc2)c(=O)oc1C	2.2	0.3%	0.0	16.5%	-4.3	.
CCS(=O)(=O)N1CCC(NC(=O)C(Cc2cccc(OC)c2OC)NC(C)=O)CC1 (centres undefined)	3.2	-0.4%	-0.1	-5.5%[15.4 µM]	2.9	1.0%
CC(=O)NC(=O)COC(=O)/C=C/c1c(C)nn(Cc2c(Cl)cccc2Cl)c1Cl	0.4	-22.4%	1.2	6.7%	-1.9	1.0%
Cn1cccc1-c1nc2ccccc2n1C	-5.8	7.4%	-0.5	2.0%[15.4 µM]	-10.9	-1.1%
COc1ccc(-c2noc3c2-c2nc(-c4ccc(Cl)cc4)sc2CC3)cc1	-5.6	6.6%	1.2	.	-2.2	?
Cc1cc(C)nc(N(C#N)CC(=O)c2ccccc2)n1	-2.2	2.7%	2.3	2.8%	19.9	0.9%
CC(=O)c1ccc(NC(=O)CCn2cccn2)cc1	.	.	0.9	.	-4.7	-0.7%
COC(=O)c1cc2c(N)c(C(=O)c3ccccc3)sc2nc1C(OC)OC	?	-24.5%	0.3	-10.5%[15.4 µM]	-12.9	.
O=C(CN1CCCC1)Nc1c2c(nc3ccccc13)N(Cc1ccccc1)CC2	-1.1	8.9%	0.5	0.7%	-2.7	14.1µM*
C=CCc1c(OC)ccc2ccc(=O)oc12	-1.0	9.2%	-0.6	?	-14.0	13.3%
COc1cc2nc(CN3CCN(S(=O)(=O)c4ccccc4C(F)(F)F)CC3)[nH]c(=O)c2cc1OC	.	-13.2%	0.8	-21.7%	-3.4	.
COC(=O)c1ccc(N2CCN(C(C)=O)CC2)c(NC(=O)c2cccnc2)c1	4.1	-0.2%	1.0	5.0%[15.4 µM]	-0.8	0.5%
Clc1ccc(COn2nnc3ccccc32)c(Cl)c1	1.2	-20.9%	1.0	?	2.0	-0.2%
Cc1nc(CSc2ccc(Cl)cc2)cs1	1.7	1.0%	1.7	-2.0%[15.4 µM]	-12.4	0.8%
CCOc1ccccc1-n1c(SCC(=O)N2CCOCC2)nc2ccccc2c1=O	0.4	-1.1%	2.6	3.8%[15.4 µM]	8.3	.
C=Cc1ccc(Cn2c(C(=O)O)c(CNCCc3ccccc3)c3ccc(C)cc32)cc1	.	.	3.2	.	0.5	-9.9%
CC(C)[C@H](NC(=O)OCc1ccccc1)C(=O)OCC(=O)NC1CCCCC1	3.6	4.1%	0.0	-9.3%	-15.5	-2.4%
Fc1ccc(/C=N/n2cnn(Cc3ccccc3Cl)c2=S)cc1	-3.8	-3.7%	0.8	2.4%	67.4	.
C=CC[C@@H](CC(=O)OC(C)(C)C)C(=O)OC[C@@H]1CCCN1C(=O)[C@H](CC=C)CC(=O)NCCO	.	13.4%	-0.9	.	-10.6	1.0%
Cc1cc(NC(=O)c2ccccc2)c(Cl)cc1N	-2.1	-1.0%	0.2	1.7%	-15.8	.
Cc1ccccc1S(=O)(=O)NC(=O)C1(C)CCN1C(=O)c1c(C)noc1C (centres undefined)	.	.	3.3	.	75.8	-1.3%

Remaining list, next part.
SMILES	Menin MLL FP FL	gsp antagonist	TRPML1 ag	gsp agonist	TRPML1 blocker	ClpP mod
COc1ccccc1-n1c(CNC(=O)c2ccco2)nnc1SCC(=O)Nc1cc(C)ccc1C	5.0	6.1%	-0.7	8.9%	-8.7	-1.9%
Cc1ccc(N(Cc2ccc(C(=O)Nc3c(C)n(C)n(-c4ccccc4)c3=O)cc2)S(C)(=O)=O)cc1C	-0.1	4.3%	-0.7	-17.9%	-5.0	.
CN(C)c1cccc(C(=O)Nc2ccc(S(=O)(=O)Nc3nccs3)cc2)c1	.	-19.9%	-0.2	.	-0.8	-18.5%
O=C(CSc1nnc2scc(-c3ccccc3)n12)Nc1nsc(-c2ccccc2)n1	4.0	-15.2%	1.6	15.8%	8.0	1.2%
COc1ccc(-c2noc(CSc3nc(C)cc(=O)[nH]3)n2)cc1OC	.	.	-0.4	.	-9.3	-2.1%
CCCOc1ccccc1C(=O)N1CCNC(=O)C1CC(=O)OC(C)C (centres undefined)	1.7	3.0%	-1.6	13.6%[15.4 µM]	-11.9	0.4%
Cc1ccc(-n2nnnc2SCC(=O)NC2CCCc3ccccc32)cc1 (centres undefined)	8.4	-23.0%	2.7	?	1.8	-0.9%
